From PubChem BioAssay
WNV protease inh: inhibitors of WNV NS2B-NS3 protease, primary screen, biochemical, fluorogenic substrate. fluorogenic substrate Ex360/Em465; stronger effect = lower value. z-score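 (tested at a level between 10 and 100 µM)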. 65,000 compounds, 0.18% hits. AID 577, 2007;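 active = z-score at -3 or under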;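 note: score is relative to mean and spread of the compound wells of a plate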
Target sequence (P06935 1371-1501 limits assumed): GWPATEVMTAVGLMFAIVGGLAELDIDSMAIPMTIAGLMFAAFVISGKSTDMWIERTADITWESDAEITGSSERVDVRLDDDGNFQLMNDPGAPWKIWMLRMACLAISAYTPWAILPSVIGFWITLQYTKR
Target sequence (P06935 1502-1679 limits assumed): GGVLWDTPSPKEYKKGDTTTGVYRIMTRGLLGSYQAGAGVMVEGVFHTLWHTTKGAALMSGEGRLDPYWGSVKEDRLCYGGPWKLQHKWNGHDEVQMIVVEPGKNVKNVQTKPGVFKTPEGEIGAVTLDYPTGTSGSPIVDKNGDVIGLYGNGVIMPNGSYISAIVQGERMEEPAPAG
MT1-MMP promoter: inhibitors of MT1-MMP promoter transcription, cell-based, luciferase reporter, luminescence (AID 618). MT1-MMP promoter luciferase reporter cells, luminescence. calls from a first round at 10 µM; hits with a dose series show EC50 in µM. 87,000 compounds, 0.62% hits;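 active = over half of the reporter light lost at 10 µM or EC50 under 50 µM; inactive = the rest and hits that failed the dose series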;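 note: actives suppress MT1-MMP promoter-driven transcription so potencies describe inhibitors; HT1080 fibrosarcoma cells; overnight exposure; toxic or luciferase-blocking compounds were not removed from the actives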
Hsc70 ATP site: Hsc70 inhibitors, probe displacement, primary screen, biochemical, fluorescence polarization (AID 568) | Heat shock cognate 71 kDa protein (Homo sapiens) | Hsc70 fluorescence polarization, probe displacement; higher % means a stronger effect; strong numbers were not always called active | displacement, % at 20 µM; hits with a dose series show IC50 in µM | 83,000 tested, under 10 active;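 active = displacement above 50% without optical interference and an IC50 on retest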;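 note: ATPase domain with a fluorescein-tagged ATP probe; 0% = vehicle and 100% = excess ADP; read after one hour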
* = called active by the depositor; i = inactive; / = no result given; + = active, no number.

SMILES,WNV protease inh,MT1-MMP promoter,Hsc70 ATP site
CC1CCCC(C)N1C(=O)c1cccc2c1-c1ccccc1/C2=N/O (centres undefined),/,i,-1.3%
O=C(NCCn1ccc2ccccc21)c1ccc(S(=O)(=O)N2CCCCC2)cc1,-0.54,i,-3.9%
CCC(=O)NCCCCCCNC(=O)CC,/,i,3.0%
O=C(CSC1=NCCS1)Nc1ccnc2ccccc12,-0.67,i,-5.8%
CCOC(=O)C(C)Sc1nnc(CNC(=O)c2ccc(OC)cc2)n1C1CCCCC1 (centres undefined),-1.12,i,-1.0%
CC1(C)NC(=O)N(CCCOc2ccc(Br)cc2Cl)C1=O,0.49,i,1.9%
Cc1ccc(S(=O)(=O)c2nc(-c3ccc(F)cc3)oc2SCC(=O)NCC2CCCO2)cc1 (centres undefined),/,i,2.2%
O=C1C=C(Nc2cccc(Cl)c2)CC(c2ccco2)C1 (centres undefined),/,i,-6.9%
Cc1nc2nc(C)c(CCC(=O)N3CCOCC3)c(C)n2n1,-0.24,i,-1.0%
CCc1cccc(C)c1NC(=O)CSc1nc2ccccc2n1CC(=O)N(C)C,-0.29,i,4.8%
COc1ccc(N2CCN(CC(=O)Nc3cc(C)on3)CC2)cc1,-0.16,i,-1.9%
CCOC(=O)c1ccccc1NC(=O)CSc1ccccc1,/,i,1.3%
Cc1nnc(SCC(=O)NCc2cccs2)n1-c1ccccc1,0.23,i,7.8%
O=C(c1cc(-c2ccc(O)cc2)on1)N1CCc2ccccc2C1,1.81,i,2.6%
CC(C)(CSc1nncn1N)NS(=O)(=O)c1ccc(Cl)cc1,-0.05,i,-2.1%
O=C(NCc1ccc2c(c1)OCO2)c1ccc(CS(=O)(=O)c2cccc(C(F)(F)F)c2)o1,0.04,i,0.9%
CCc1cccc(C)c1NC(=O)c1ccoc1C,0.3,i,-2.7%
Cc1cc(NC(c2cccnc2)c2c(C)[nH]c3ccccc23)no1 (centres undefined),0.38,i,4.6%
CCOC(=O)C1=C(C)NC2=C(C(=O)CCC2)C1c1ccsc1 (centres undefined),-0.14,i,2.6%
CCCC1CC(c2csc(N)n2)CCO1 (centres undefined),1.26,i,2.2%
CN(C)C(=O)c1cn(-c2ccccc2)nc1-c1cccs1,/,i,-0.4%
Cn1c(/N=C/c2ccc3c(c2)OCO3)nc2ccccc21,0.02,i,6.2%
CCOc1ccc(N=C2NC(=O)S/C2=C\c2ccc(OC)cc2)cc1,/,i,-0.2%
O=C(CCCCCCN1C(=O)c2ccccc2C1=O)Nc1nccs1,/,i,0.4%
CCOc1ccc(NC(=O)CCN2CCN(S(=O)(=O)c3cc(Cl)ccc3OC)CC2)cc1,-0.85,i,-6.9%
CC1CN(c2oc(Cc3cccc4ccccc34)nc2C#N)CC(C)O1 (centres undefined),0.73,i,-5.5%
O=C(c1cccs1)N1CCCc2ccccc21,0.61,i,2.1%
O=c1c2ccccc2nc(SCc2cn3ccsc3n2)n1-c1ccc(F)cc1,0.11,i,-2.0%
Cc1ccccc1NC(=O)/C(=C/c1ccco1)c1ccccc1,/,i,-1.8%
O=C(c1cccs1)N1CCC(c2nc(-c3ccc(S(=O)(=O)N4CCOCC4)cc3)no2)CC1,-0.43,i,-0.9%
COCC(C)n1c(C)cc(C(=O)CSc2ccc(NC(C)=O)cc2)c1C (centres undefined),/,i,5.5%
C=C(C)c1cccc(C(C)(C)NC(=O)NCC2COCCO2)c1 (centres undefined),0.32,i,3.9%
O=C(Nc1ccccc1)c1ccc(NCc2ccco2)c(S(=O)(=O)N2CCOCC2)c1,-0.45,i,-3.6%
O=C(NCc1ccccc1)/C(NC(=O)c1ccccc1)=C(/Sc1ccccn1)c1ccccc1,/,i,-2.2%
COc1cc(S(=O)(=O)N2CCOCC2)c(OC)c(S(=O)(=O)N2CCOCC2)c1,-1.88,i,-0.5%
CCOC(=O)N1CCN(C(=O)c2ccc3nc(N4CCC(C)CC4)sc3c2)CC1,-1.84,i,-2.3%
O=C(NCCCn1ccnc1)C(F)(F)C(F)(F)C(=O)NCCCn1ccnc1,-0.83,i,7.0%
CCOC(=O)Cc1csc(SCc2nc3sc4c(c3c(=O)[nH]2)CCC4)n1,/,i,-3.3%
COCCn1c(SCC(=O)Nc2ncc(Cl)c(C)c2Cl)nc2ccccc21,0.71,i,1.5%
O=C1c2ccccc2NC(c2ccc3c(c2)OCO3)N1O (centres undefined),-0.56,i,5.7%

Four entries already listed, arranged by molecular weight, lowest first.
SMILES,WNV protease inh,MT1-MMP promoter,Hsc70 ATP site
CCCC1CC(c2csc(N)n2)CCO1 (centres undefined),1.26,i,2.2%
O=C(c1cccs1)N1CCCc2ccccc21,0.61,i,2.1%
CCOC(=O)C1=C(C)NC2=C(C(=O)CCC2)C1c1ccsc1 (centres undefined),-0.14,i,2.6%
CCc1cccc(C)c1NC(=O)CSc1nc2ccccc2n1CC(=O)N(C)C,-0.29,i,4.8%

The listing continues.
SMILES,WNV protease inh,MT1-MMP promoter,Hsc70 ATP site
COC(=O)c1cc(=O)n2c(-c3ccc(OC)cc3)csc2n1,0.08,i,-3.2%
CCOc1ncccc1C(=O)OCC(=O)NCCc1ccc(OC)cc1,0.35,i,3.4%
CS(=O)(=O)N1CCC(C(=O)Nc2ccccc2)CC1,/,i,-2.2%
O=C(NCCCN1CCOCC1)c1c(O)c2ccccc2[nH]c1=O,1.18,i,2.1%
N#Cc1cc(Oc2cccnc2)c(Oc2cccnc2)cc1C#N,/,i,2.6%
Cc1cc(C)n(-c2nc(-c3ccccc3)cs2)n1,/,i,5.5%
CCSc1nnc(Cc2cc(=O)[nH]c(=O)[nH]2)n1-c1cc(C)ccc1C,-0.55,i,2.0%
CCCCc1c(O)nc(N2CCN(Cc3ccccc3)CC2)[nH]c1=O,0.38,i,3.7%
N#Cc1ccc(CSc2nnc(NC(=O)C3CCCO3)s2)cc1 (centres undefined),0.02,i,-0.3%
COC(=O)c1ccc(NC(=O)C(C)N2C(=O)c3ccccc3C2=O)cc1 (centres undefined),-0.22,i,-4.9%
CC(=O)Nc1ccc(NC(=O)Cn2cnc3c(cnn3C(C)(C)C)c2=O)cc1,0.43,i,-4.1%
O=C1CCCc2c1nc(-c1ccco1)n2O,-0.92,i,5.0%
CC(C)Oc1ccc2nnnn2n1,-0.2,i,4.7%
CCn1cnc2c1c(=O)n(CC(=O)N1CCc3ccccc31)c(=O)n2Cc1ccccc1,-1.2,i,4.9%
Cc1nc2cc(S(=O)(=O)N3CCC(C(=O)O)CC3)ccc2n1C1CCCC1,0.65,i,-2.0%
CCN1CCN(CC(=O)Nc2sc3c(c2C#N)CCC(C)C3)CC1 (centres undefined),-0.46,i,-2.3%
Fc1ccccc1N1CC(c2ccccc2)C(c2cccs2)=N1 (centres undefined),/,i,3.5%
CCCNC(=O)Nc1ccccc1C(=O)Nc1ccc(OC)cc1,0.42,i,-0.5%
O=S(=O)(NCC(c1ccccc1)N1CCNCC1)c1ccc(Cl)cc1 (centres undefined),-0.54,i,3.6%
Cc1cc(C)n(-c2nc3ccccc3c(=O)n2OCc2ccc(F)cc2)n1,-0.5,i,-1.2%

Compound profiles, from the list above. Values in the order: WNV protease inh | MT1-MMP promoter | Hsc70 ATP site
CCN1CCN(CC(=O)Nc2sc3c(c2C#N)CCC(C)C3)CC1 (centres undefined) across the screens: -0.46 | i | -2.3%
CCCNC(=O)Nc1ccccc1C(=O)Nc1ccc(OC)cc1 across the screens: 0.42 | i | -0.5%

Continued.
SMILES,WNV protease inh,MT1-MMP promoter,Hsc70 ATP site
CCOc1cc(C(=O)OCc2ccc(C(=O)OC)o2)cc(Br)c1OC,-0.19,i,2.2%
C=CCn1c(-c2ccc3[nH]c(C)c(C)c3c2)n[nH]c1=S,/,i,5.5%
COc1cccc(Nc2nc(-c3ccc4c(c3)OCCO4)cs2)c1,/,i,6.6%
Cc1ccnc(NC(=O)c2cc(-n3cnnc3)ccc2Cl)c1,/,i,-0.8%
CCCCN(CC)S(=O)(=O)c1ccc(C(=O)Nc2nnc(COC)o2)cc1,-0.87,i,2.8%
CCOC(=O)N1CCN(c2cc(=O)n(-c3ccc(OC)cc3)c(=O)[nH]2)CC1,-0.13,i,-4.0%
CCCC(=O)Nc1ccc(Cl)c(NC(=O)C(C)(C)C)c1,0.37,i,3.4%
COc1ccccc1Nc1nc(N)nc(CSc2ncccn2)n1,0.71,i,-1.9%
Cc1cc(=O)oc2cc(OCC3CC(c4ccc(Cl)cc4)=NO3)ccc12 (centres undefined),/,i,-3.6%
O=C(CSc1nnc(COc2cccc3cccnc23)o1)c1ccc(F)cc1,0.41,i,-4.3%
COc1ccc(Cn2c(-c3ccc(OC)cc3)nc3ccccc32)cc1,/,i,-2.7%
CC1CCN(C(=O)Cn2cc(C#N)c3ccccc32)CC1,/,i,1.7%
CCn1cc(C2=NC(C)(C)CO2)c2ccccc21,/,i,0.1%
Cc1ccc(NC(=O)c2oc3ccc(S(=O)(=O)N4CCC5(CC4)OCCO5)cc3c2C)cc1C,/,i,-1.4%
Cc1ccc2[nH]c(CCN(C)C)c(CC#N)c2c1,0.59,i,-1.2%
C=CCNc1nc2ccccc2nc1NS(=O)(=O)c1cccs1,0.35,i,0.9%
COc1ccccc1S(=O)(=O)Cc1ccc(C(=O)NC(C)c2ccc3c(c2)OCCO3)o1 (centres undefined),0.44,i,-0.1%
Fc1ccc(Cl)cc1/C=N/n1cnnc1SCc1ccccc1,/,i,6.0%
Cn1cccc1CNC(=O)Nc1ccc(Cl)c(Cl)c1,0.00264,i,-4.4%
CCn1c(SCC(=O)Nc2ccc3c(c2)OCO3)nnc1-c1cnccn1,0.33,i,0.1%
C#CC1(O)CC(C)N(C)C(C)C1 (centres undefined),-0.27,i,0.9%
COc1cccc(C2CC(c3ccc(Cl)cc3)Nc3nc(N)nn32)c1 (centres undefined),-1.52,i,5.8%
c1cc2c(cc1Cn1cnnn1)OCO2,-0.006,i,-0.2%
COc1ccc2sc(NC(=O)c3ccco3)nc2c1,0.93,+,-2.2%
CCOC(=O)CNC(=O)c1nn(-c2ccc(OCC)cc2)c(=O)c2ccccc12,1.89,i,8.7%
COc1ccc(OCC2CNC(=O)O2)cc1 (centres undefined),-0.48,i,-0.1%
O=C(CCn1c(=O)oc2ccccc21)N1CCCCCC1,1.27,i,1.3%
CCn1c(SCc2nc3ccccc3[nH]2)nnc1-c1cccs1,1.1,i,-0.5%
O=C(CCn1c(=O)oc2ccccc21)NCCCN1CCN(c2ccc(F)cc2)CC1,0.22,i,5.9%
COCCNc1nnc(SCC(=O)N2CCN(S(=O)(=O)c3ccccc3)CC2)s1,-0.55,i,0.5%
COc1ccc(NC(=O)CC2CCCCC2)cc1OC,-0.4,i,-3.3%
CC(=O)Nc1ccc2ccccc2c1,/,i,-7.2%
COCCn1c(SCc2cccnc2)nnc1-c1ccco1,-0.65,i,0.2%
Cc1cc(C)cc(N2CC(c3nc4ccccc4n3C)CC2=O)c1 (centres undefined),0.97,i,1.6%
COc1ccc(NC(=O)c2csc(Cc3ccccc3)n2)cc1,/,i,1.6%
Cn1c(COc2ccc3ccccc3c2)nnc1SCC(N)=O,-1.3,i,3.9%
Cc1ccc(NC(=O)C2(N(C(=O)Cn3nnnc3N)c3ccc(C)cc3)CCCCC2)cc1,1.98,i,2.9%
O=C1C2C3C=CC([C@@H]2C(=O)N1C1CCCCC1)[C@H]1C(=O)N(C2CCCCC2)C(=O)C31 (some centres undefined),/,i,5.1%
NS(=O)(=O)c1ccc(CNC(=O)NC23CC4CC(CC(C4)C2)C3)cc1,-1.83,i,-1.5%
c1ccc(N2CCCCC2)c(NC2=NCCC2)c1,-0.95,i,6.6%
Cn1c(C(=O)N2CCCC(C(=O)N3CCN(C(=O)c4ccco4)CC3)C2)cc2sccc21 (centres undefined),-0.25,i,3.3%
O=C(CNC(=O)OCc1ccccc1)NCC(=O)N1CCCC1C(=O)OCc1ccccc1 (centres undefined),/,i,0.8%
Cc1ccoc1C(=O)NCc1occc1C(=O)O,1.7,i,-7.2%
CCOC(=O)c1c(C)c(C(=O)NC(C)COC)c(C)n1CC (centres undefined),0.37,i,1.8%
CCCS(=O)(=O)N1CCCC(C(=O)NCCN(CC)CC)C1 (centres undefined),-0.65,i,-10.8%
O=C(Nc1cccc(Cl)c1)c1ccncc1,-0.51,i,2.3%
CCOc1ccc(N2C(=O)c3cccnc3C2Nc2ccc(C)cc2)cc1 (centres undefined),-0.57,i,0.3%
C=CCNc1nc(C2(C)CC3(CC(C)OC3=O)C(=O)O2)cs1 (centres undefined),-0.39,i,-2.7%
O=C(CSc1nnc(-c2ccccc2)o1)c1nnc(-c2ccccc2)o1,0.08,i,-5.2%
COC(=O)c1cccc(NC(=O)CN2CCN(Cc3ccccc3)CC2)c1,-0.63,i,6.5%
NC(=O)CS(=O)(=O)c1nc2ccccc2n1Cc1ccccc1F,2.33,i,5.1%
